# HCMV UL50-53 inh: inhibitors of HCMV UL50-UL53 interaction, biochemical, HTRF | actives 0.15% (n = 190,000) | HCMV UL50-UL53 nuclear egress complex (human cytomegalovirus) | AID 1918969, 2023 | normalized percent inhibition | inhibition, % (no concentration beside the values);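 active = both replicates at 50% or more, plus weaker picks with an unusually low signal ratio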;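 also: stock transfer was 100 nL into about 20 µL; 0% = negative control wells and 100% = wells with untagged competitor protein; inactives centre near -12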
# Sa growth 42C: S. aureus growth inhibition at 42 and 30 °C, primary screen, LtaS inhibitor project, RN4220, two temperatures. actives 0.53% (n = 170,000). relative growth, % (no concentration beside the values). AID 720641, 2013. OD600, 20 h, 42 °C; stronger effect = lower value;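 active = growth at 42 °C up to 50% and 20 or more points under that at 30 °C, or under 10% at both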;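 also: 300 nL library stock went into each well; scaled to the means of positive and negative controls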
# GIV-Gai inh: inhibitors of GIV peptide binding to Galpha-i3, primary screen, biochemical, fluorescence polarization, FITC-GIV GBA peptide, rat Galphai3; Guanine nucleotide-binding protein G(i) subunit alpha-3 (Rattus norvegicus), P08753; 90 min; stronger effect = lower value; scaled: aluminum fluoride 0%, vehicle 100%; percent of control (FP), % (concentration not given with the values); actives 0.42% (n = 210,000); AID 1224905, 2016;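 active = replicate mean at 85% of control or lower, very high polarization wells dropped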;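 also: wells of about 15 µL received 100 nL stock; the first replicate is given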
# Target sequence (P08753 whole entry, looked up): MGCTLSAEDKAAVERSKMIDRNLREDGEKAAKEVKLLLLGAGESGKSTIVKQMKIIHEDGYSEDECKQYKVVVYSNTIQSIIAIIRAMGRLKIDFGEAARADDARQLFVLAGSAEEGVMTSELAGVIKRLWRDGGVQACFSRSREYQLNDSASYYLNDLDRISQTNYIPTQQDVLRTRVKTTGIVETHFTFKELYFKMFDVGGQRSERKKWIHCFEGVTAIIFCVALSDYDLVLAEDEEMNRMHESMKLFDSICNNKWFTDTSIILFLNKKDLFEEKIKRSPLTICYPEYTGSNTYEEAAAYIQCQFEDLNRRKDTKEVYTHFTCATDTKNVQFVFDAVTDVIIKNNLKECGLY
# Sa growth 42C second temp: also measured in Sa growth 42C; calls as there; relative growth, %; measured here: growth at 30 °C;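 optical density after 20 h as mean of two plates; 100% = untreated growth and lower means inhibition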
# * hit, by the source's call; . = not tested or not shown; & = joins results of further samples.
# Results follow in this order: HCMV UL50-53 inh	GIV-Gai inh	Sa growth 42C second temp	Sa growth 42C
> O=S1(=O)C[C@H](NCCC2=CCCCC2)[C@@H](S(=O)(=O)c2ccc(F)cc2)C1
→ -13	102	.	.
> COc1cccc(N2C(=O)c3ccccc3C2C(=O)NC2CCCC2)c1 (stereo not given)
→ -14	98	92	101
> Cc1cc(C)c(NC(=O)COC(=O)C2CCCCC2)c(C)c1
→ -6	.	100	97
> Cc1nn2cc(-c3ccc(OC(C)C)cc3)nc2s1
→ -3	99	94	97
> O=C(NCCCN1CCOCC1)c1cc2n(n1)CCCN(Cc1cccc(F)c1)C2=O
→ -23	98	.	.
> CCn1c(C)c(/C=C/c2nc3ccccc3c(=O)n2CCCO)c2ccccc21
→ -10	106	.	.
> COc1ccc(C(=O)NCCc2nnc3ccc(SCC(=O)Nc4ccc(C)cc4C)nn23)cc1
→ .	104	83	113
> Cc1ccc(CN(C)C(=O)c2ccc(Oc3ccccc3)cc2)o1
→ -26	.	16	13
> CN(C)/C=C1/N=C(c2ccccc2)OC1=O
→ -19	110	104	112
> Cc1cccc(S(=O)(=O)c2cn(Cc3ccccc3)c3cc(N4CCCCC4)c(F)cc3c2=O)c1
→ .	108	115	125
> COc1ccc2[nH]cc(CCNC(=O)c3sc4ncccc4c3-n3cccc3)c2c1
→ -9	100	.	.
> O=C(CCS(=O)(=O)c1nc(-c2ccc3c(c2)OCO3)cc(C(F)(F)F)n1)Nc1ccc(OC(F)(F)F)cc1
→ 5	107	94	94
> CCN(CC)C(=O)c1sc2nc(C)nc(N3CCN(c4ccccn4)CC3)c2c1C
→ -4	104	.	.
> O=C(CSCc1cnn(-c2ccccc2)c1-n1cccc1)NCc1ccc(F)cc1
→ 0	100	78	99
> O=C(CCc1ccccc1)NC1CCS(=O)(=O)C1 (stereo not given)
→ -5	.	96	102
> COc1ccc2c(c1)c(=O)c(C(=O)c1ccc(C)c(C)c1)cn2CC(=O)Nc1ccc2c(c1)OCCO2
→ -48	101	94	95
> CCn1c(=NC(=O)CSCC(=O)NC2CCCCC2)sc2cc(C(=O)OC)ccc21
→ .	105	87	82
> Cc1cccc(NC(=O)c2oc3ccccc3c2NC(=O)Cc2coc3cc(C)cc(C)c23)c1
→ -13	105	87	117
> CN(Cc1cccc(F)c1)C(=O)C1CC(=O)N(Cc2ccco2)C1 (stereo not given)
→ -21	.	97	96
> Cc1nc(SCC(=O)OC(C)(C)C)c2c3c(sc2n1)CCCC3
→ -42	107	86	108
> CC1CCN(C(=O)CN2c3ccc(Br)cc3-c3ccccc3S2(=O)=O)CC1
→ 11	109	89	99
> O=S(=O)(Cc1ccc(C(F)(F)F)cc1)c1ccc(Cl)cc1
→ .	104	83	102
> COc1ccc(-c2nc3ccccc3s2)cc1NC(=O)c1ccc(C#N)cc1F
→ -3	108	104	100
> Cc1ccccc1Nc1nnc(C(C)(C)C)c(=O)[nH]1
→ -25	99	.	.
> CNC(=S)N1CCSC1=Nc1ccccc1C
→ -3	.	79	103
> N#CCSc1nnc(-c2ccc(Cl)cc2)n1Cc1ccco1
→ -19	.	90	101
> O=C(O)CC1(CC(=O)Nc2ccc(I)cc2F)CCCCC1
→ 3	107	104	172
> Cc1ccc(S(=O)(=O)CC(=O)NC2CC2)cc1
→ -17	102	79	101
> CCCCC1CCC(C2CCC(C(=O)O)CC2)CC1 (stereo not given)
→ 5	.	38	62
> CCc1cc(C(Nc2nc(C)cc(C)n2)c2ccc3c(c2)OCO3)c(NC(=O)c2ccccc2)s1 (stereo not given)
→ -24	105	.	.
> Cc1cc(Cl)cc(C)c1OCCn1ccnc1
→ 7	102	16	19
> CC(C)Cn1cc(I)c(=O)n(CC(C)C)c1=O
→ -26	108	84	93
> O=c1nc(SCCN2CCCCC2)nc2ccccn12
→ -44	101	89	82
> Cc1c(N(C)C(=S)SCC(=O)O)c(=O)n(-c2ccccc2)n1C
→ -18	99	88	86
> NC1=NC(c2ccc(Cl)cc2)n2c(nc(=O)c3ccccc32)N1 (stereo not given)
→ -15	103	.	.
> CC1CC(C)CN(S(=O)(=O)c2ccc(CN3C(=O)c4cccnc4C3=O)cc2)C1 (stereo not given)
→ -37	107	83	102
> COc1ccc(C(=O)NCCc2ccc(O)cc2)c(OC)n1
→ .	102	81	106
> Cc1ccc(S(=O)(=O)N2CCCC2C(=O)NCc2ccccc2Cl)cc1 (stereo not given)
→ -26	.	85	109
> COc1nc(N)nc(C23CC4CC(CC(C4)C2)C3)n1
→ -5	106	90	89
> COc1cc(NC(=O)C(CCSC)NS(=O)(=O)c2ccc3c(c2)oc(=O)n3C)cc(OC)c1 (stereo not given)
→ .	94	93	87
> O=C(Nn1cnnc1)c1ccccc1-c1ccccc1
→ 8	100	98	97
> COc1ccc2[nH]cc(CCNS(C)(=O)=O)c2c1
→ -9	107	75	89
> COc1ccc(OC)c(NC(=O)C2CCCN2S(=O)(=O)c2ccc3c(c2)NC(=O)CO3)c1 (stereo not given)
→ -17	102	.	.
> Cc1c(C)c(C)c(CSC2=NCCS2)c(C)c1C
→ -16	106	91	100
> O=c1ccc(=O)n(-c2ccccc2)[nH]1
→ 1	105	91	122
> CCSC1=N/C(=C\c2ccsc2)C(=O)S1
→ -18	102	89	57
> CS(=O)(=O)Cc1ccc(Oc2ccc(NS(C)(=O)=O)cc2)cc1
→ 8	.	99	103
> Cc1c(CCNC(=O)c2ccco2)sc2nc(-c3ccc(F)cc3)nn12
→ .	100	86	83
> Cc1ccc(-c2ccnc(-c3ccc(O)cc3)n2)cc1
→ 6	100	.	.
> COC(=O)c1scc(S(=O)(=O)C(C)C)c1-n1cccc1
→ -13	106	87	95
> COc1ccc(N2CCN(C(=O)Cc3nn(C)c(=O)c4ccccc34)CC2)cc1
→ .	101	83	97
> CC(C)(C)c1cc(Cl)c(O)c(N=Cc2ccccc2O)c1
→ .	105	83	81
> COC(=O)C1C(=O)C2=C(CC1C)NC(=O)CC2c1cccc(OC)c1 (stereo not given)
→ .	103	89	111
> CC1CCN(C(=O)c2ccc3c(c2)N(C)C(=O)C2CCCCN32)CC1 (stereo not given)
→ -1	103	.	.
> Cc1ccc2c(c1)C=C(C(=O)NC1CCCC1)C=CO2
→ -30	103	.	.
> CCCCSc1nc(-c2ccc(OC)cc2)ccc1C#N
→ -9	104	93	96
> NCCCc1nc2ccccc2[nH]1
→ -18	96	74	100
> Cc1[nH]c(=O)[nH]c(=O)c1S(=O)(=O)NCc1ccccn1
→ 0	.	93	98
> COc1ccc2oc(-c3ccc(C)c(NC(=O)CSc4ccc(Cl)cc4)c3)nc2c1
→ -14	106	95	106
> CCc1ccc(OCC(=O)Nc2ccc3c(c2)c2ccccc2n3CC)cc1
→ 5	99	91	122

# Compound profiles, as listed above:
# Cc1ccc2c(c1)C=C(C(=O)NC1CCCC1)C=CO2 is listed as HCMV UL50-53 inh = -30; GIV-Gai inh = 103; Sa growth 42C second temp = .; Sa growth 42C = .
# O=C(Nn1cnnc1)c1ccccc1-c1ccccc1 is listed as HCMV UL50-53 inh = 8; GIV-Gai inh = 100; Sa growth 42C second temp = 98; Sa growth 42C = 97
# COC(=O)c1scc(S(=O)(=O)C(C)C)c1-n1cccc1 is listed as HCMV UL50-53 inh = -13; GIV-Gai inh = 106; Sa growth 42C second temp = 87; Sa growth 42C = 95

# Following part:
# Results follow in this order: HCMV UL50-53 inh	GIV-Gai inh	Sa growth 42C second temp	Sa growth 42C
> CCCCN(C)S(=O)(=O)c1ccc2c(c1)CCN2C(=O)CC
→ .	98	93	87
> O=C(Cn1nnc(C(=O)O)c1C(=O)O)NC(=O)Nc1ccccc1F
→ -15	102	.	.
> COc1ccc(N2CCN(Cc3nc4c(c(=O)[nH]c(=O)n4C)n3Cc3ccccc3)CC2)cc1
→ 4	102	105	90
> Cc1nc2c3ccccc3nc(NNC(=O)CCC(=O)N3CCN(c4cccc(C(F)(F)F)c4)CC3)n2n1
→ -16	95	82	92
> CC(NC(=O)Nc1cccnc1)N1C(=O)C2C3C=CC(C3)C2C1=O (stereo not given)
→ -19	101	92	92
> CN(Cc1ccccc1)c1ncnc2c1nc1n2CCCC1
→ .	106	88	92
> N#Cc1c(-n2cccc2)sc2c1CCCC2
→ .	102	80	119
> O=C(C1CCN(c2nc3cccnc3s2)CC1)N1CCCCC1
→ 4	94	105	98
> CCOC(=O)C1=C(NC2CCN(Cc3ccccc3)CC2)C(=O)N(C(C)(C)C)C1
→ 11	107	98	105
> C=CCNc1oc(-c2ccc(F)cc2)nc1S(=O)(=O)c1ccc(Cl)cc1
→ 5	99	.	.
> COc1ccc(NC(=O)CSc2oc(-c3ccco3)nc2S(=O)(=O)c2ccccc2)c(OC)c1
→ 0	103	97	94
> COc1ccc(CNC(=O)C2=Cc3ccccc3OC2)cc1
→ -18	.	98	93
> CCCN(CCC)C(=O)Cn1c(=O)n(CCOC)c(=O)c2sc3ccccc3c21
→ -17	103	.	.
> O=C(OCn1nnc2ccccc2c1=O)C12CC3CC(CC(O)(C3)C1)C2
→ -29	.	85	90
> O=C(CSc1nccn1-c1cccc(Cl)c1)Nc1ccc2c(c1)OCO2
→ .	98	87	119
> CCC(C(=O)Nc1ccc(F)cc1)n1nc(-c2ccccc2)c2c(c1=O)CCCC2 (stereo not given)
→ 30	110	.	.
> Cc1ccc2c(c1)c(=O)c(C(=O)c1ccc3c(c1)OCO3)cn2Cc1cccc(F)c1
→ -29	95	73	88
> CC1(C)C(=O)N(CC(=O)Nc2ccccc2F)c2ccccc21
→ 11	99	.	.
> CCOc1ccc(N=C2SC(C(=O)Nc3ccc(F)cc3)CC(=O)N2Cc2ccc3c(c2)OCO3)cc1 (stereo not given)
→ -18	102	.	.
> CCCCN(C)S(=O)(=O)c1cc(Br)cc2c1N(C(=O)CC)CC2
→ -16	105	78	82
> CCCCOc1ccc(OCCCC)c2c1nc(-c1ccccc1NC)c(=O)n2C
→ -1	105	.	.
> COc1cccc(CNn2cn[nH]c2=S)c1OCc1ccccc1
→ -7	103	91	107
> COc1ccc(Cl)c(C(=O)OCC(=O)Nc2ccc(F)cc2)c1
→ -15	.	81	92
> O=C(O)COc1ccc(/C=C2\C(=O)NC(=S)N(c3ccc(F)cc3)C2=O)cc1Br
→ -33	92	.	.
> Cc1nn(C(=O)c2c(F)cccc2F)c(C)c1S(=O)(=O)N1CCCCCC1
→ .	103	81	84
> CCCC(=O)Nc1nc2ccc(S(C)(=O)=O)cc2s1
→ -26	99	85	82
> COc1ccccc1N1CCN(c2ccc(=O)n(CC(=O)Nc3ccc(F)cc3F)n2)CC1
→ -32	108	.	.
> CCn1c2ccccc2c2nnc(N3CCN(c4ccc(F)cc4)CC3)nc21
→ -2	100	74	86
> CCN(CC)c1c(CN2CCCC2)c(=O)oc2ccccc12
→ -12	96	76	99
> Cc1oc2ncn(Cc3ccccc3F)c(=O)c2c1C
→ -18	101	.	.
> CC(C)(C)NS(=O)(=O)Nc1ccccc1
→ 2	106	102	105
> O=C(CSc1nc2[nH]ncc2c(=O)[nH]1)N1CCCc2ccccc21
→ -23	103	81	93
> CCc1ccc(NC(=O)N2CCc3c(c(C(=O)NCc4ccccc4)nn3C)C2)cc1
→ -40	106	.	.
> Cc1cc2ccccn2c1C(=O)c1ccc(S(=O)(=O)N(C)C)cc1
→ -93	.	85	84
> Cn1nc(Oc2ccc(-c3ccccc3)cc2)c(=O)n(C)c1=O
→ 11	.	97	105
> COc1ccc(C(=O)NCc2cn3ccsc3n2)cc1OC
→ .	104	88	110
> COc1ccccc1CNC(=O)Cn1ncc2c3ccccc3n(Cc3ccc(F)cc3)c2c1=O
→ 1	98	81	90
> CC1=Nc2ccc(C)cc2/C1=C\c1c(N)n2nc(S(=O)(=O)CC(C)C)sc2nc1=O
→ .	106	82	99
> O=C(c1cc2occc2c(Nc2ccc(Cl)cc2)n1)N1CCN(C2CCCCC2)CC1
→ 0	103	.	.
> CCOc1cc(C2C(C(=O)OCCOC)=C(C)NC3=C2C(=O)CC(c2ccccc2)C3)cc(Br)c1O (stereo not given)
→ -4	101	.	.
> CC(=O)Nc1ccc(N2C(=O)CN(S(C)(=O)=O)CC2(C)C(=O)NC2CCCC2)cc1 (stereo not given)
→ -5	103	.	.
> CCCCC(=O)/C=C/n1c(=S)oc2ccccc21
→ .	101	77	91
> Cc1cc(I)ccc1NS(=O)(=O)c1cccs1
→ -8	.	80	100
> O=C(COC(=O)c1ccc2c(c1)OCCO2)c1ccccc1
→ -2	.	101	91
> Cc1ccc(NC2OC(C(O)CO)C(O)C2O)cc1C (stereo not given)
→ 7	140	102	115
> Clc1ccccc1-c1nn2c(-c3ccccn3)nnc2s1
→ -19	102	.	.
> Cc1cccc(C)c1OCc1nnc2c3cnn(-c4ccccc4)c3ncn12
→ -5&-15	102&98	91	110
> O=C(c1ccccc1)N1CCCOC1c1ccccc1 (stereo not given)
→ -16	99	79	97
> Cc1cnc(C)c(N(C)C)n1
→ 6	.	71	91
> CCCN(CCC)C(=O)c1sc2nc(-c3ccccc3)cn2c1C
→ .	104	56	103
> CCCc1cc(=O)oc2c3c(ccc12)OCN(Cc1ccccc1OC)C3
→ .	111	95	104

# Source: PubChem BioAssay
